Source: PubChem
KCNQ2 enhance: enhances the rat KCNQ2 potassium channel | CHO-K1 KCNQ2, FluxOR thallium flux fluorescence; active compounds read high | B-score at 10 µM | hit rate 0.54% among 310,000 | AID 2239;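 active = fluorescence ratio B-score at least 3 SD of library B-scores, with initial fluorescence B-score within 3 SD, cut at about 5.3 in these data; same plate scores as AID 2156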;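 also: B-score of peak minus minimum over baseline fluorescence ratio after K+ and Tl+ stimulus; positive B-score means potentiation of KCNQ2 with more thallium influx and brighter signal; only the inactives scoring about 0 or higher are listed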
Target sequence (O88943 whole entry, looked up): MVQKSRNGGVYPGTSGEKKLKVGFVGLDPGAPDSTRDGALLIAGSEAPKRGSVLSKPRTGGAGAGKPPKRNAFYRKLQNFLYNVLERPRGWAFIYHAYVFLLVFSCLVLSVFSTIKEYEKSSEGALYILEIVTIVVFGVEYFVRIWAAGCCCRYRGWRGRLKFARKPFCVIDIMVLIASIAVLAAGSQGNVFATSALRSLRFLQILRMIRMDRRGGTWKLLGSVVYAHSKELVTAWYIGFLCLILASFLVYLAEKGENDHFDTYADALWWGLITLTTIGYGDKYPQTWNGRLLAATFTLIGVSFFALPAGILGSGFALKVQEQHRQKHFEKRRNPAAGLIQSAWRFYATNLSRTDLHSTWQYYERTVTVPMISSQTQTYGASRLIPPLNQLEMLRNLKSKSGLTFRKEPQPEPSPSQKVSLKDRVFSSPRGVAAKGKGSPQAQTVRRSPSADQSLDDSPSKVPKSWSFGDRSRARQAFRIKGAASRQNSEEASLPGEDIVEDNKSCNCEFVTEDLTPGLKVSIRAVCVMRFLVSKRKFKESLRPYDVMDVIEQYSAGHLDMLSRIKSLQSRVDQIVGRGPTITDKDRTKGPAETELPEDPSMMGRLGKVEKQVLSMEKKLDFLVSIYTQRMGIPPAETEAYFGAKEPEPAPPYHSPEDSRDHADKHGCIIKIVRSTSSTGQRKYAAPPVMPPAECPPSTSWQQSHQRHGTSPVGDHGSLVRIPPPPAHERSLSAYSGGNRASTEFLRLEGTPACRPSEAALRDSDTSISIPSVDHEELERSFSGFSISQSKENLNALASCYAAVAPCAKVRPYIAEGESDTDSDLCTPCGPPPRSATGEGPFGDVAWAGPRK
KCNQ2 enhance baseline: also measured in KCNQ2 enhance; calls as there; B-score; compound at 10 µM; measured here: initial fluorescence intensity artifact check;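 brightness before thallium and not channel activity; 0 = typical well and far values either way flag optical interference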
The depositor's hits bear a star. Some of the compounds tested. The share of hits here may be higher or lower than overall.

Results follow in this order: KCNQ2 enhance	KCNQ2 enhance baseline
CC(C)(C)NC(=O)NC(=O)CSc1ncc(C(F)(F)F)cc1Cl
    0.05	-0.06
O=C1c2ccncc2C(=O)N1CNc1ccc(Cl)cc1
    1.3	-0.05
O=S(=O)(c1cccc(Cl)c1Cl)N1CCN(C(=S)NCCCN2CCOCC2)CC1
    1.5	0.31
CCCNC(=O)c1cc2ccccc2c(=O)o1
    0.56	-2.4
NS(=O)(=O)c1ccc(CNC(=O)CNC(=O)c2ccc(Br)o2)cc1
    0.3	1
O=C(c1ccc(F)cc1)N1CCC(N2CCOCC2)CC1
    0.09	0
CCc1nnc(NC(=O)c2c(C)nn(-c3ccccc3)c2Cl)s1
    0.03	-0.06
COCC(C)NCc1ccc(OC)c(Br)c1 (configuration not stated)
    1.1	0.28
Nc1nc(NC(=O)c2ccccc2)nn1-c1ccccc1
    1.6	-0.02
C#CCOCCOCCOCCNc1nc(N2CCN(C(=O)[C@H](CCCCN)n3cc([C@@H](N)CO)nn3)CC2)nc(N2CCN(C(=O)[C@H](Cc3cc4ccccc4[nH]3)n3cc([C@@H](N)CC(C)C)nn3)CC2)n1
    1	-1.9
CCCCc1ncc(CN2CCN(Cc3ccc(C)cc3)C(CCO)C2)[nH]1 (configuration not stated)
    0.36	1
N#Cc1c(N)c(C(=O)c2ccccc2)n2ccccc12
    2.3	0.03
CC(C)NS(=O)(=O)c1ccc(NC(=S)NC(=O)c2cccc([N+](=O)[O-])c2)cc1
    0.85	-0.17
CCCn1cccc(C(=O)Nc2ccc(OC)cc2)c1=O
    1.1	-0.01
O=C(Cc1ccc([N+](=O)[O-])cc1)Nc1ccc(Cl)cc1
    0.59	-0.22
COc1ccc(NC(=O)N2CCc3ccccc32)cc1
    2.8	-2.3
CCCc1nn(C(=O)c2ccccc2)c2c1C(=O)CC(C)(C)C2
    0.17	0.35
O=C(Nc1ccccc1[N+](=O)[O-])c1cccnc1Cl
    0.59	0.75
O=C(CCCN1C(=O)c2ccccc2C1=O)NCCC1=CCCCC1
    0.29	-0.14
Cc1cccc(NC(=O)CCC(=O)N/N=C/c2cccnc2)c1
    2.6	0.04
CCOC(=O)Cc1nnc(-c2ccccc2)o1
    1.3	-2.1
CN1CCN(CC#CC(C)(O)C2CC3C=CC2C3)CC1 (configuration not stated)
    5.4*	0.03*
CC1CCC/C(=C\Nc2ccc(C(=O)O)c(O)c2)C1=O (configuration not stated)
    1	-0.45
Cc1ccc(/C=N/NC(=O)CSc2nc3ccccc3[nH]2)o1
    0.86	0.44
CC(C)Cc1nnc(NC(=O)CCC(=O)N2CCN(c3ccccc3)CC2)s1
    0.5	-0.14
CN(C)/C=C/C(=O)c1ccncc1
    1.9	-0.81
Cc1nc2cc(NS(=O)(=O)c3cccc4cccnc34)ccc2s1
    1.9	-1.3
Cc1nnc(NC(=O)c2cccc(S(=O)(=O)N3CCN(C)CC3)c2)s1
    1.2	-2.3
CCCCC(O)CN1CCC(c2ccccc2)CC1 (configuration not stated)
    0.93	-0.73
COc1ccc(C2(C(=O)NCc3ccco3)CCCC2)cc1OC
    0.19	2.4
O=C1NCCCc2nonc21
    3.3	-0.26
COc1cccc(CNC(=O)C2CCCN(c3nc4ccccc4o3)C2)c1 (configuration not stated)
    0.85	-1.3
Cc1nc2sc(C(N)=O)c(N)c2c2c1CCCC2
    1.3	-0.29
COCCSc1ccccc1C(=O)N1CCOCC1
    1.3	0.57
CCc1nnc(SCC(=O)Nc2nc(C)c(C(=O)N(C)C)s2)n1CC
    0.19	-0.6
CCOC(=O)c1sc(=S)n(-c2ccccc2)c1N
    0.7	-0.63
CCO/C=C1/C(=O)N(C(C)=O)c2ccccc21
    1.4	-0.07
CC(C)NC(=O)c1onc(CSc2ccc(F)c(F)c2)c1C(=O)O
    0.06	-1
Cc1sc2ncnc(SCC(=O)Nc3nc(-c4ccc(F)c(F)c4)cs3)c2c1C
    0.84	-1.5
Cc1ccc(CNC(=O)C2CC(=O)N(C3CCCCCCC3)C2)cc1 (configuration not stated)
    0.06	-0.51

Whole records, looked up by structure.
Listed for CC(C)(C)NC(=O)NC(=O)CSc1ncc(C(F)(F)F)cc1Cl = KCNQ2 enhance: 0.05; KCNQ2 enhance baseline: -0.06
Listed for COCCSc1ccccc1C(=O)N1CCOCC1 = KCNQ2 enhance: 1.3; KCNQ2 enhance baseline: 0.57
Listed for CC(C)Cc1nnc(NC(=O)CCC(=O)N2CCN(c3ccccc3)CC2)s1 = KCNQ2 enhance: 0.5; KCNQ2 enhance baseline: -0.14

Further compounds:
Results follow in this order: KCNQ2 enhance	KCNQ2 enhance baseline
COc1ccc(-c2nnc(SCC(=O)c3ccc[nH]3)n2-c2ccccc2)cc1
    0.46	2.5
CC1(C)NC(=O)N(CC(O)COc2ccccc2[N+](=O)[O-])C1=O (configuration not stated)
    2	-0.89
CSCCC(NC(=O)c1ccco1)C(=O)OCC(=O)Nc1sccc1C#N (configuration not stated)
    0.22	-0.07
Cc1cc(C)n2nc(C(=O)N3CCOCC3)nc2n1
    0.86	-0.67
COc1ccccc1NC(=S)NC(NC(=O)CC(C)C)C(Cl)(Cl)Cl (configuration not stated)
    0.57	-1.1
COc1ccc(S(=O)(=O)N2CCCCC2)cc1NC(=O)c1ccc(=O)[nH]c1
    0.96	-0.1
COC(=O)CN(c1ccc(F)cc1)S(=O)(=O)c1ccc2c(c1)OCCO2
    1.7	0.28
Cc1cc(C(=O)CSc2nnc(N)s2)c(C)n1C1CC1
    1.1	1.7
Cc1ccc(S(=O)(=O)N2CCCCC2)cc1NC(=O)CSc1nncn1-c1ccccc1
    1.3	0.14
Cc1ccc(C2=NOC(=O)/C2=C\c2ccccc2)cc1
    0.59	1.2
COc1ccc(NC(=O)C(Cc2ccccc2)NC(=O)c2ccco2)cc1OC (configuration not stated)
    0.01	0.99
CCOc1ccc(NC(=O)Cc2ccccc2)c([N+](=O)[O-])c1
    3.7	0.12
O=C(Nc1ccccc1C(F)(F)F)C1CCN(C(=O)c2cccs2)CC1
    0.03	0.42
Cc1ccc(Nc2nnc(SCC(=O)c3ccc(O)cc3O)s2)cc1
    1.4	3.1
CCc1ccc(C2C(=O)c3ccccc3C2=O)cc1
    0.16	0.4
Cn1c(=O)n(CC(=O)Nc2ccccc2)c2ccccc21
    0.27	-0.27
Cc1onc(-c2ccccc2)c1C(=O)Nc1nnc(N2CCCCCC2)s1
    0.01	-1.3
Nc1ccc(Sc2ccccc2)nc1
    0.17	2.5
CCN(c1ccccc1)S(=O)(=O)c1ccc(C(=O)NCCCn2ccnc2)cc1
    0.73	0.8
COc1ccc(N2CCN(C(=O)Cn3cnc4c3c(=O)n(C)c(=O)n4C)CC2)cc1
    0.73	0.57
CC1CN(C(=O)Nc2ccc(Br)cc2Cl)CC(C)O1 (configuration not stated)
    1	-0.86
Nc1ccc(Sc2ccccc2CC(=O)O)cc1
    0.04	0.19
CC(C)C(=O)Nc1cccc(C(=O)Nc2ccc(S(=O)(=O)N3CCOCC3)cc2)c1
    2.1	-1.1
CC(=O)N1CCc2cc(S(=O)(=O)NCCC(=O)NCCc3ccc(C)cc3)ccc21
    0.83	-0.01
COc1ccccc1CNC(=O)Cn1cc([N+](=O)[O-])ccc1=O
    0.68	-0.01
CCN(CC)S(=O)(=O)c1ccc(NC2CCN(Cc3ccccc3)CC2)nc1
    0.63	-2
CN1CCN(c2ccc(NC(=O)c3ccc4c(c3)OCCO4)cc2Cl)CC1
    0.6	2.1
Cc1ccc([N+](=O)[O-])cc1NC(=O)C1CCCC1
    1.6	-1.8
COc1ccc(NC(=O)COC(=O)CCc2cc(OC)c(OC)c(OC)c2)c([N+](=O)[O-])c1
    0.03	0.17
CCC(C)C(NC(=O)C1CCC(=O)N1C(=O)OCc1ccccc1)C(=O)NC(Cc1ccccc1)C(N)=O (configuration not stated)
    0.13	-0.31
O=[N+]([O-])c1cccc(OCC(O)CN2CCN(S(=O)(=O)c3cc(Cl)ccc3Cl)CC2)c1 (configuration not stated)
    0.51	0.18
COc1ccc(C(=O)OCCc2sc[n+](CC(=O)c3ccccc3)c2C)cc1
    1.5	1.9
COc1ccc(CCN2C(=O)CS/C2=N/NC(=O)c2ccccc2F)cc1OC
    0.25	1.8
CCCOc1ccccc1/C=C1\SC(N)=NC1=O
    0.56	-0.62
N/C(=N\OS(=O)(=O)c1ccc(Cl)cc1)c1ccncc1
    1	0.33
CCC1Oc2ccc(C)cc2N(CC(=O)N(Cc2cccnc2)Cc2cccc(F)c2)C1=O (configuration not stated)
    1.5	-2.1
CCn1ccnc1CN1CCCCC1C(=O)Nc1ccc(Oc2cccnc2)cc1 (configuration not stated)
    0.52	-0.05
CCOc1ccc(Cl)cc1S(=O)(=O)N1CCC(C(=O)N2CCCC2)CC1
    0.45	-0.24
CCCn1c(=N)n(CC(O)c2ccco2)c2ccccc21 (configuration not stated)
    1.6	-0.35
COc1ccc(CNCc2cccc(Cl)c2)cc1
    0.35	0.59

Fetched one by one from above:
Results follow in this order: KCNQ2 enhance	KCNQ2 enhance baseline
Cc1ccc(S(=O)(=O)N2CCCCC2)cc1NC(=O)CSc1nncn1-c1ccccc1
    1.3	0.14
COCCSc1ccccc1C(=O)N1CCOCC1
    1.3	0.57

The listing continues:
Results follow in this order: KCNQ2 enhance	KCNQ2 enhance baseline
CCCCN1CCNC1=S
    0.02	-0.34
CCCCNC(=O)CCCn1c(=O)c2ccccc2n(CC(=O)NCCC2=CCCCC2)c1=O
    0.08	-0.16
CC(C)Sc1nc2c(c(=O)[nH]c(=O)n2C)n1C
    1.6	-2.9
COC(=O)c1ccc(COc2cccc3c2OC(C)(C)C3)cc1
    0.07	0.03
Cc1ccc(-c2nnc(Nc3ccc(CC(N)=O)cc3)c3ccccc23)cc1
    1.1	-0.67
Cc1ccc(N/C(N)=N/c2nc(C)cc(C)n2)cc1
    0.74	0.3
Cn1c(=O)c2c(ncn2CC(=O)N2CCN(c3ccccc3)CC2)n(C)c1=O
    1.8	-0.26
COc1ccc(/C(C)=N/NC(=O)c2ccncc2)cc1
    0.04	1.3
O=C(NCC1CCCCC1)c1cccc(S(=O)(=O)NCc2cccnc2)c1
    0.98	-0.12
CCCS(=O)(=O)N1CCC(C(=O)NCc2ccc3c(c2)OCO3)CC1
    0.71	1
CCCCCCCCCCn1c2c(c(=N)c3c1CCC3)CCC2
    32*	0.97*
Cc1ccc(C(=O)N2C(=S)C(c3ccc(F)cc3)=NC23CCN(C)CC3)cc1
    3.4	-2.8
CCc1nc(SCC(=O)N2CCC(C)CC2)c2c(=O)n(C)c(=O)n(C)c2n1
    16*	0.58*
COc1cc2[nH]c(=O)n(Cc3ccccc3Cl)c(=O)c2cc1OC
    0.49	-1.7
CCC(C)NC(=S)Nc1ccc(F)cc1 (configuration not stated)
    0.44	0.21
CCOC(=O)C1CCN(C(=O)COC(=O)c2nn(C)c(=O)c3ccccc23)CC1
    1.5	-0.01
CN(C)c1ccc(N2[C@@H](CC(=O)O)c3cc(C(F)(F)F)ccc3S2(=O)=O)cc1
    0.29	0
CCn1c(C)cc(O)c(C(=O)Nc2cccc(Cl)c2)c1=O
    1.6	1.6
CCOc1ccc(/C(O)=C2\C(=O)C(=O)N(CCN(C)C)C2c2cccc(OC)c2OC)cc1Cl (configuration not stated)
    0.42	2
O=C(Nc1ccc(Cl)cc1)c1cc2nc(C3CC3)cc(C(F)(F)F)n2n1
    1.3	-0.08
Cc1[nH]oc(=O)c1N=Nc1ccc2[nH]c(=O)[nH]c2c1
    1.4	-1.3
CCOC(=O)/C(N=Nc1ccc(Cl)cc1)=C(/O)c1ccc([N+](=O)[O-])cc1
    0.03	2.5
Nc1cc(-c2ccc(Cl)cc2)nn1S(=O)(=O)c1cccc2nsnc12
    5.1	1.8
O=C(Cn1cnc2c(cnn2-c2ccc(F)cc2)c1=O)N1CCN(c2ccccc2)CC1
    0.53	1.2
O=C(/C=C/c1cccs1)N1CCN(Cc2ccc3c(c2)OCO3)CC1
    0.26	-0.36
Cc1ccc(OCC(=O)NNC(=O)CSc2nnc(-c3ccc(C)cc3)n2C)cc1
    0.53	0.58
CC1=C(C(=O)OC(C)C)C(c2coc3ccccc3c2=O)C2=C(CCCC2=O)N1 (configuration not stated)
    0.98	0.17
CCOC(=O)C1CCN(Cc2nnc(-c3cccc(Br)c3)o2)CC1
    0.25	0.58
CC(=O)c1cccc(OCc2cc(C(=O)N(C)Cc3cnccn3)no2)c1
    0.33	1.9
CCOC(=O)C1CCN(S(=O)(=O)c2nc3nc(C)cc(C)n3n2)CC1
    0.42	2.5
Cc1c(Cl)cccc1NC(=O)CCCn1nc([N+](=O)[O-])cc1C
    0.87	1.5
Brc1ccc(/C=N/Nc2ccc3ccccc3n2)cc1
    1.6	-2.5
O=S(=O)(NC1CC1)c1ccc(S(=O)(=O)N(Cc2ccccn2)C2CC2)cc1
    0.19	-0.26
O=C(N/N=C/c1cccs1)c1cccc2cc[nH]c12
    0.21	-0.1
C[N+]1(CC(O)c2ccccc2)CCCCCC1 (configuration not stated)
    0.47	-0.27
CCCn1c(N/N=C(C)\C=C\c2ccccc2)nc2c1c(=O)[nH]c(=O)n2C
    0.95	1.9
CCOC(=O)c1ccccc1NC(=O)COC(=O)C1=COCCO1
    0.76	0.96
Nc1c(C(=O)N2CCOCC2)sc2nc(N3CCOCC3)c3c(c12)CCCC3
    0.01	0.89
C=CC[n+]1c(-c2ccc(Cl)cc2Cl)csc1Nc1ccc(NC(C)=O)cc1
    0.5	0.44
CC(C)c1cc(=O)n2[nH]c(N)nc2n1
    0.41	0.16
CC(=O)c1ccc(N2Cc3ccccc3/C2=N\C(=O)Nc2ccc(Cl)cc2)cc1
    1.8	-1.5
